VDR inh – blocks the human vitamin D receptor. P11473. VDR-SRC2-3 peptide fluorescence polarization, 2 h. Potency, µM, inactives show max response, negative = inhibition, hits mostly inhibitors. actives 0.93% (n = 400,000); active means well fitted inhibition curve with a large enough effect; inconclusive means small, poorly fitted or top-dose-only effect, or another doubt; inactive means no such curve, though single readings can be large or run the other way; further: series mostly up to about 120 µM
Target sequence (P11473 whole entry, looked up): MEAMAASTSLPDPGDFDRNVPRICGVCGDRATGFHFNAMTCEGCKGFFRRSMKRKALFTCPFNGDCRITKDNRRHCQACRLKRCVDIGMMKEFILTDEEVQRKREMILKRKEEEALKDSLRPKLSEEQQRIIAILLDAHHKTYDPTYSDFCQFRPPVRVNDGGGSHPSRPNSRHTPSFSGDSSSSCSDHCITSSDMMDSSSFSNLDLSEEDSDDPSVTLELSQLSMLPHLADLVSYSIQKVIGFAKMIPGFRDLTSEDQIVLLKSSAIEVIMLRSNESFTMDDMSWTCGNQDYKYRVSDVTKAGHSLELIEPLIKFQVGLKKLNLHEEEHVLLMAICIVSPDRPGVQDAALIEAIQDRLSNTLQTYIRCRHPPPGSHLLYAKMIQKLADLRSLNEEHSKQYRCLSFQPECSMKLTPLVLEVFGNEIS
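Inhibition of the VDR/SRC2-3 peptide interaction is quantified by fluorescence polarization. Compounds (23 nl, pintool) incubate with the reagents for 2 hours at ambient room temperature.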
* hit, by the source's call; ? = inconclusive; & = joins results of further samples; [ ] = another dose, or the depositor's remark. On the % scale 0 is the no-effect control and ±100 the full control effect; potency means the concentration at half of the fitted maximal effect. This is a subset (hit frequency here may not be typical).

SMILES	VDR inh
CCC(=O)N1CCc2cc(S(=O)(=O)NC(C(=O)NC3CCCc4ccccc43)C(C)C)ccc21 (stereo not given)	-5%
Cc1cccc(NC(=O)C(Cc2ccccc2)NS(=O)(=O)c2ccc3c(c2)c(=O)n(C)c(=O)n3C)c1 (stereo not given)	-11%
COc1ccccc1NC(=O)COn1nnc2ccc(S(=O)(=O)N3CCOCC3)cc21	-28%
Cc1c(Cl)cccc1NC(=O)CCN1CCCCCC1	3%
CCc1nnc(SCC(=O)N2CCc3ccccc32)n1CC	2%
CC(C)=CCC/C(C)=C/CC/C(C)=C/CSCC(=O)O	-8%&-8%
CC1CCCN(S(=O)(=O)c2ccc(N3CCCCS3(=O)=O)cc2)C1 (stereo not given)	1%
Cn1cnc2nc(NCCO)nc(NCc3ccccc3)c21	0%
CCc1ccc2[nH]c(=O)c(-c3ccccc3)c(O)c2c1	?
O=C(Nc1cccnc1)c1cc(-c2ccc(F)cc2)on1	-24%
OCCNCc1ccc(-c2ccccc2)cc1	-28%
O=C(Oc1ccc(F)cc1)c1nc(SCc2ccccc2F)ncc1Cl	10%
O=C(Nc1c(O)c2ccccc2oc1=O)c1ccccc1Cl	8%
Cc1nn(-c2ccccc2)c(C)c1/C=N/NC(=O)c1cc(-c2ccccc2)n[nH]1	-13%
CCC(C)(C)n1nnnc1C(c1ccc2ncccc2c1)N1CCCCCC1 (stereo not given)	2%
Cc1c2cnn(CC(=O)NCCN3CCOCC3)c(=O)c2c(C)n1Cc1ccccc1	5%
O=C(Cn1cnc([N+](=O)[O-])c1)c1ccc(Cl)cc1	-12%
O=C(NC(=S)Nc1ccccc1N1CCOCC1)c1cccc([N+](=O)[O-])c1	-15%
C/C(=N\NC(=O)CSc1nc2ccccc2o1)c1cccc(O)c1	-8%
O=C(CCS(=O)(=O)c1ccc(Br)cc1)Nc1ccccn1	-18%
CC(=O)N1CCCN(Cc2cn(-c3cc(C)ccc3C)nc2-c2ccccc2)CC1	3%
Cc1ccc(Cn2c(CN3CC(C)OC(C)C3)nc3c2c(=O)[nH]c(=O)n3C)cc1 (stereo not given)	-10%
CCN(CC)S(=O)(=O)c1ccc(N2CCc3ccccc3C2)nc1	-27%
Cc1ccc(CN2CCC(CNC(=O)Nc3ccccc3F)CC2)cc1	-2%&10%
O=C(COc1ccccc1)NCC(=O)N1CCCCCC1	4%
New compounds follow
SMILES	VDR inh
COc1cc(CN(C2CCCCC2)S(=O)(=O)c2ccc(S(=O)(=O)N(C)C3CCCCC3)cc2)cc(OC)c1OC	-13%
CC(=O)Nc1ccc(NC(=O)CSc2nnc(-c3cc(C)[nH]n3)n2N)cc1	-8%
Nc1scc[n+]1Cc1cccc2cccnc12	5%
C#CC(C)(CC)NC(=O)Cn1nnc(-c2ccc(OCc3ccccc3C)cc2)n1 (stereo not given)	-12%
O=C(N/N=C/c1ccc(Br)s1)c1cccnc1	-10%
COc1ccc(S(=O)(=O)N2CCOC2CNC(=O)C(=O)NCCCN(C)C)cc1C (stereo not given)	-1%
O=C(Cc1n[nH]c(=O)[nH]c1=O)N/N=C/c1cccc(O)c1	25%
O=C(N/N=C/c1cccnc1)c1cccc(NC(=O)c2ccccc2Cl)c1	4%
CCOc1ccc(-c2c(C)nn3c(C)c(C(=O)NC(C)c4ccccc4)cnc23)cc1OCC (stereo not given)	8%
Cc1ccc2oc(C(=O)NCC3CCOCC3)c(C)c2c1	13%
Cc1ccc(C2(c3noc(CN(C)Cc4ccccn4)n3)CCCC2)cc1	9%
Cc1nn(-c2ccccc2)c(Cl)c1/C=C1\SC(=S)N(C)C1=O	-9%
COc1cc(NC(=O)COc2ccc(C)c(C)c2)ccc1NC(=O)c1ccco1	-2%
Cc1cc(-n2c(C)nc3ccccc3c2=O)ccc1NC(=O)c1ccccc1[N+](=O)[O-]	9%
CCOC(=O)c1c(C)[nH]c(C)c1S(=O)(=O)N1CCN(C(=O)c2ccco2)CC1	17%
CN(CC(=O)Nc1cccc(F)c1)CC(=O)N(C)CC(=O)Nc1ccccc1Br	?
CC1CCCC(C)N1CCNC(=O)CCn1nc(-c2ccccc2)ccc1=O (stereo not given)	-10%
Cc1ccc(NS(=O)(=O)c2cccc(C(=O)NCCc3c[nH]c4ccccc34)c2)c(C)c1	11%
O=C1c2ccccc2C(=O)N1CN(C(=O)c1ccccc1)c1ccc(O)cc1	10%
O=C(Nc1cccc(Cl)c1)c1cnn2cccnc12	?
Cc1ccc(Nc2nc3ccccc3n3nnnc23)cc1	33%[activator]
COCCN(C(=O)CCC(=O)Nc1nccs1)C(C(=O)NC(C)(C)C)c1ccc(F)cc1 (stereo not given)	53%[activator]
Cc1noc(C)c1COc1ccc(C(=O)OCC(=O)Nc2cccc(S(=O)(=O)N3CCOCC3)c2)cc1	-2%
Cc1cccc(NC(=O)C[n+]2cccc(C)c2)c1	-2%
CC(C)c1ccc(N(C(=O)CNC(=O)c2ccco2)C(C(=O)NC2CCCC2)c2ccncc2)cc1 (stereo not given)	4%
(next part)
SMILES	VDR inh
COc1ccc(-c2nc3ccccc3nc2-c2ccc(OC)c(OC)c2)cc1OC	5%
COc1ccc(C)cc1Nc1cc(C)nc2ncnn12	-18%
CCc1cccc(NC(=O)c2cc(S(=O)(=O)N(C)C)ccc2N2CCCC2)c1	2%
COc1ccccc1NC(=O)c1ccc(COc2ccc(C)c(C)c2)o1	-17%
COc1cc(C2SCC(=O)N2CCCN(C)C)cc(OC)c1OC (stereo not given)	?
CCN(CC(=O)Nc1cc(Cl)ccc1C)C(=O)c1cc(S(=O)(=O)N2CCCCCC2)ccc1OC	3%
Cc1cc(C)nc(NC(=O)Nc2ccc3c(c2)OCO3)c1	4%
Cc1ccc(/C=C/C(=O)Nc2ccc(S(=O)(=O)Nc3ncccn3)cc2)cc1	-5%
C=C[C@]12CC[C@H](OC(C)=O)CC1=CCC1C2CC[C@@]2(C)C1CCC21OCCO1 (stereo not given in full)	1%
c1ccc2c(c1)ncn2Cc1nnc2sc(-c3ccncc3)nn12	-13%
Cc1ccc(NC(=O)c2c(Cl)n(C)c3ccccc23)cc1	-2%
COc1ccc(CCNC(=O)c2sc3nc4n(c(=O)c3c2C)CCC4)cc1	5%
O=C1c2ccccc2-c2cccc(NS(=O)(=O)c3ccc(C(F)(F)F)cc3)c21	8%
COc1cc(NC(=O)Nc2cccc(-c3noc(C)n3)c2)cc(OC)c1OC	7%
COC(=O)C(NC(=O)c1ccccc1)(Nc1cc(C)cc(C)n1)C(F)(F)F (stereo not given)	-7%
CCC1(c2ccc(F)cc2)NC(=O)N(CC(=O)Nc2ccc(-c3nc4ccc(C)cc4s3)cc2)C1=O (stereo not given)	-2%
COc1ccc(-c2ocnc2C(=O)NCc2nn(-c3ccccc3)nc2C)cc1	-29%
O=C(NCC(=O)N1CCN(C(=O)c2ccco2)CC1)c1cccc(Cl)c1	0%
N#C/C(=C\c1ccc(O)c(Br)c1)C(=O)NCc1ccccc1	-3%
CC(=O)C[C@@H](O)CC(=O)[C@@H]1OC(=O)CCCCC/C=C/Cc2ccccc21	0%
Cn1c(CCNC(=O)c2ccco2)nc2cc(NC(=O)c3ccco3)ccc21	-10%
CCOc1ccccc1NC(=O)CN(c1ccc(C)cc1)S(=O)(=O)c1c(C)noc1C	-12%
CC1CCCCC1NC(=O)CN1CCN(Cc2ccccc2Cl)C1=O (stereo not given)	-1%
Cc1ccc(N2CC(C(=O)N3CCN(C(=O)c4ccco4)CC3)CC2=O)cc1 (stereo not given)	12%
CCNc1c2c(nc3ccccc13)CC(C)(C)CC2=O	-15%

Reprinted at random: two entries already listed, in no set order.
SMILES	VDR inh
CCc1cccc(NC(=O)c2cc(S(=O)(=O)N(C)C)ccc2N2CCCC2)c1	2%
COc1ccc(CCNC(=O)c2sc3nc4n(c(=O)c3c2C)CCC4)cc1	5%

The listing continues.
SMILES	VDR inh
COc1cccc(C(=O)Nn2c(C)nnc2-n2nc(C)cc2C)c1	-11%
O=[N+]([O-])c1ccc(O)c(/C=N\N=C2c3ccccc3-c3ccccc32)c1	5%
Cc1cccc(NC(=O)CSCC(=O)OCc2ccccn2)c1	10%
O=C(Nc1ccc(OC(F)(F)C(F)F)c(NC(=O)c2cccc(F)c2)c1)c1cccc(F)c1	27%
O=C(N/N=C\c1cccnc1)c1ccccc1O	-17%
Cc1cccc(NC(=O)c2ccc(COc3cccc4ccccc34)o2)n1	-24%
COc1cc(/C=C(\C#N)C(=O)Nc2ccc3ccccc3c2)c([N+](=O)[O-])cc1OC	-19%
CCOC(=O)c1c(NC(=O)CSc2ncn[nH]2)sc(C(C)=O)c1C	8%
CCOC(=O)CSc1nnc(CSc2nc(C)cc(C)n2)n1Cc1ccco1	-2%
O=C(Cn1c(=O)sc2ccccc21)NCCOc1ccccc1F	2%
Cc1ccc(NC(=O)CSc2nc3c([nH]c4ccccc43)c(=O)n2-c2ccccc2)cc1Cl	5%
CC(Sc1ccccc1)C(=O)Nc1ccc(N2CCOCC2)cc1 (stereo not given)	7%
COc1ccc(C)cc1NC(=O)C1CCN(S(=O)(=O)c2cccc3nonc23)CC1	9%&-8%
Cc1ccc(NC(=O)c2ccc3nsnc3c2)c(Cl)c1	-17%
CC1(C)CC(=O)C2=C(C1)OC(N)=C(C#N)C2C1CC=CCC1 (stereo not given)	-13%
CCC(=O)N1CCc2cc(S(=O)(=O)NC(C(=O)NCCc3ccc(C)cc3)C(C)C)ccc21 (stereo not given)	-3%
CCN(CC(=O)Nc1c(F)cccc1F)C(=O)Cc1c(C)nc2ccccc2c1C	2%
O=C1c2ccccc2C(O)N1c1cccnc1 (stereo not given)	-6%
COc1ccccc1CC(=O)Nc1cc(C)ccn1	-7%
C[n+]1nc(Nc2ccccc2)sc1-c1ccc(O)cc1	3%
O=C(Cn1cnc([N+](=O)[O-])n1)N/N=C/c1ccccc1O	5%
O=C(CCC(=O)N1CCCC1)N1CCCC1	3%
Oc1ccc(/C=N/NC(=S)NCc2ccco2)cc1	8%
Cn1c(NC(=O)c2ccc(Cl)cc2Cl)cc(=O)n(C)c1=O	4%
COc1ccc(/C=C/C(=O)O)cc1S(=O)(=O)N1CCCC1	8%
The list goes on.
SMILES	VDR inh
Cc1ccc(NC(=O)CNC(=O)C2CCCCC2)nc1	-10%
CC1Oc2ccccc2N(CC(=O)N2CCCCC2)C1=O (stereo not given)	-3%
COc1ccc(C)cc1NC(=O)CSc1nnc(-c2ccc(C)cc2)o1	-11%
Cc1ccc(S(=O)(=O)N2CCCC(C(=O)N3CCN(C)CC3)C2)cc1 (stereo not given)	-5%
CCNc1nc(NCC)n2c(SC(C)C(=O)c3ccc(C)cc3)nnc2n1 (stereo not given)	-1%
C/C(CCc1ccccc1)=N\NC(=O)c1ccccc1[N+](=O)[O-]	-11%
CCN1CCN(CCNC(=O)c2ccc(CS(=O)c3ccc(Br)cc3)o2)CC1 (stereo not given)	-9%
CCN(CC)c1ccc(N2C(=O)c3ccccc3C2=O)cc1	5%
COc1ccc(N2CCN(C(=O)COC(=O)c3cccc(S(=O)(=O)Nc4cccc(C)c4)c3)CC2)cc1	-7%
COC(=O)c1cccc(N(C(=O)c2cnccn2)C(C(=O)NCc2ccccc2)c2ccco2)c1 (stereo not given)	-3%
O=c1oc(C2(O)CCCCC2)cc2ccc(Br)cc12	-1%
COc1ccc([C@H]2OCC3C2CO[C@@H]3c2ccc(OC)c(OC)c2)cc1OC (stereo not given in full)	1%
CC(C)N(C(=O)COC(=O)c1ccccc1C(=O)c1ccc(Cl)c([N+](=O)[O-])c1)C(C)C	-22%
Nc1ccc(O)c(-c2nc3ccccc3s2)c1	-19%
Cc1cc(=O)n2nc(N3CCCC3C(=O)Nc3cccc(F)c3)sc2n1 (stereo not given)	3%
COc1cc(/C=C2\SC(=S)N(Nc3ncc(C(F)(F)F)cc3Cl)C2=O)ccc1O	?
O=C(CNC(=O)c1ccc(OC(F)F)cc1)Nc1cccc(S(=O)(=O)N2CCCC2)c1	-9%
Nc1c2c(nc3ccccc13)CSCC2	-15%
O=C1OC(Nc2ccccn2)c2ccccc21 (stereo not given)	8%
CCOc1ccc(NC(=O)CSC2=NCCN2)cc1	-8%
CC1CCN(CCOc2ccc(C(=O)c3ccccc3)cc2)CC1	-9%

Gathered by group: the entries above with a Cl atom (16)
SMILES	VDR inh
Cc1c(Cl)cccc1NC(=O)CCN1CCCCCC1	3%
O=C(Oc1ccc(F)cc1)c1nc(SCc2ccccc2F)ncc1Cl	10%
O=C(Nc1c(O)c2ccccc2oc1=O)c1ccccc1Cl	8%
O=C(Cn1cnc([N+](=O)[O-])c1)c1ccc(Cl)cc1	-12%
O=C(N/N=C/c1cccnc1)c1cccc(NC(=O)c2ccccc2Cl)c1	4%
Cc1nn(-c2ccccc2)c(Cl)c1/C=C1\SC(=S)N(C)C1=O	-9%
O=C(Nc1cccc(Cl)c1)c1cnn2cccnc12	?
CCN(CC(=O)Nc1cc(Cl)ccc1C)C(=O)c1cc(S(=O)(=O)N2CCCCCC2)ccc1OC	3%
Cc1ccc(NC(=O)c2c(Cl)n(C)c3ccccc23)cc1	-2%
O=C(NCC(=O)N1CCN(C(=O)c2ccco2)CC1)c1cccc(Cl)c1	0%
CC1CCCCC1NC(=O)CN1CCN(Cc2ccccc2Cl)C1=O (stereo not given)	-1%
Cc1ccc(NC(=O)CSc2nc3c([nH]c4ccccc43)c(=O)n2-c2ccccc2)cc1Cl	5%
Cc1ccc(NC(=O)c2ccc3nsnc3c2)c(Cl)c1	-17%
Cn1c(NC(=O)c2ccc(Cl)cc2Cl)cc(=O)n(C)c1=O	4%
CC(C)N(C(=O)COC(=O)c1ccccc1C(=O)c1ccc(Cl)c([N+](=O)[O-])c1)C(C)C	-22%
COc1cc(/C=C2\SC(=S)N(Nc3ncc(C(F)(F)F)cc3Cl)C2=O)ccc1O	?

Screening data as filed in PubChem.
